Sfp inh: qHTS Assay for Inhibitors of Bacillus subtilis Sfp phosphopantetheinyl transferase (PPTase). 4'-phosphopantetheinyl transferase ffp (Bacillus subtilis), Q9F4F7. Potency, µM, for the others: max response, negative = inhibition, actives largely listed as inhibitors. hit rate 3.5% among 310,000. Biochemical Sfp PPTase activity, qHTS. AID 1490, 2009; active means well fitted inhibition curve with a large enough effect; inconclusive means small, poorly fitted or top-dose-only effect, or another doubt; inactive means no such curve, though single readings can be large or run the other way;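 further: the enzyme is Sfp with the accession as filed and its product quenches rhodamine fluorescence; potency means the concentration at half of the fitted maximal effect; 0% = enzyme reaction without inhibitor and -100% = no enzyme wells; top concentration of the series not given in the record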
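Reaction rates are the 30-min fluorescence difference (ex 525, em 598 nm) in wells containing 15 nM Sfp, 5 uM rhodamine-CoA and 12.5 uM BHQ-2-YbbR at pH 7.6 with 10 mM MgCl2.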
gsp ag: qHTS for Agonist of gsp, the Etiologic Mutation Responsible for Fibrous Dysplasia/McCune-Albright Syndrome: qHTS; gsp mutant cells, cAMP HTRF, 30 min; control for the full effect not named in the record; Potency, µM (top dose mostly 76.9 µM), inactives show at the highest dose activation (cAMP increase), actives largely listed as activators; hit rate 0.13% among 340,000; active = well fitted activation curve with a large enough effect; inconclusive = small, poorly fitted or top-dose-only effect, or another doubt; inactive = no such curve, though single readings can be large or run the other way; cell line not stated here;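 further: phosphodiesterase inhibitor Ro 20-1724 added with compounds to block cAMP breakdown; potency means the concentration at half of the fitted maximal effect; nearly all actives have a fitted effect of over 60% in size; about a fifth of the inactives were tested at one dose only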
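Cells in DMEM/10% FBS with G418 were pretreated with compounds in DMSO plus […] (300 uM stock) for 30 min at 37C. cAMP was measured by HTRF (cAMP-d2 plus anti-cAMP antibody-K) after 30 min at room temperature.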
TRPV1 PAM: HTS Assay for Compounds that Act as Potentiators of the Vanilloid Receptor 1; AID 540277, 2011; hit rate 0.02% among 320,000; TRPV1-expressing cells, Fluo-8 calcium influx, capsaicin EC20 potentiation; host cell line not named in the record; control for the full effect not named in the record; Transient receptor potential cation channel subfamily V member 1 (Homo sapiens), Q8NER1; potentiation, % at 8.33 µM; active means potentiation above 80%; inconclusive means 30% to 80%; inactive means below 30%; further: 0% is about no effect
Target sequence (Q8NER1 whole entry, looked up): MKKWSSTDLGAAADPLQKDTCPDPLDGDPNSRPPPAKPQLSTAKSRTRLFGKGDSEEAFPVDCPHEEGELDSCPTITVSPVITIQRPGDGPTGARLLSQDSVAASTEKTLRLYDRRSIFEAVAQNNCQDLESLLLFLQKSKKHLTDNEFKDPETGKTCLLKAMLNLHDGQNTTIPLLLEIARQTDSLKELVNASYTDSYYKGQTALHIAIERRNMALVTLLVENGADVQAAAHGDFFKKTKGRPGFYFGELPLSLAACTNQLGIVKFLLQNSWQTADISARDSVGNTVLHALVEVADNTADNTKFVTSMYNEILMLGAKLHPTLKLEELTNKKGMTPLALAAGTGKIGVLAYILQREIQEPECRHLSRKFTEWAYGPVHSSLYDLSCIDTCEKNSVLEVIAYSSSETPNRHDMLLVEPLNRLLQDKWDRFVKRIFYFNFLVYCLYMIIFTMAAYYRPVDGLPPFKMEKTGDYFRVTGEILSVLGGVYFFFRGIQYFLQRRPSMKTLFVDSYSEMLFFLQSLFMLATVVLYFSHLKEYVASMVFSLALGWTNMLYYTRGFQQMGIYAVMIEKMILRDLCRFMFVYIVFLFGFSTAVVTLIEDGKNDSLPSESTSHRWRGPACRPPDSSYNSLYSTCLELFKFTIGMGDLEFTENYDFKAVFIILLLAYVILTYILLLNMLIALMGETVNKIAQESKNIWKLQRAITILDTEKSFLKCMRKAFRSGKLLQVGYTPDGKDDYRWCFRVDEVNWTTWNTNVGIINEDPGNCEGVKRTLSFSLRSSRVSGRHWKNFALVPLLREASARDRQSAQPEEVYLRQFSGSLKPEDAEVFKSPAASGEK
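Cells expressing TRPV1 were dye-loaded with Fluo-8 and read kinetically: 10 s baseline, 3 min after compound (agonist portion), then 2 min after EC20 capsaicin (allosteric enhancer portion). Calcium-bound dye fluorescence at 480/520 nm.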
ClpP mod: qHTS Assay for Activators of ClpP; Potency, µM (titrated, usually from 57.5 µM), for inactives: top-dose activity change, negative = active; ATP-dependent Clp protease proteolytic subunit (Bacillus subtilis (strain 168)), P80244; purified B. subtilis ClpP, FRET peptide cleavage, 20 min; hit rate 1.9% among 340,000; active = well fitted falling curve with a large enough effect; inconclusive = small, poorly fitted or top-dose-only effect; inactive = no such curve, though single readings can be large or run the other way; further: potency means the concentration at half of the fitted maximal effect; the source files actives as falling curves though it sought activators and does not explain the sign; nearly all actives have a fitted effect of over 65% in size; many hits overshoot -100%
Target sequence (P80244 whole entry, looked up): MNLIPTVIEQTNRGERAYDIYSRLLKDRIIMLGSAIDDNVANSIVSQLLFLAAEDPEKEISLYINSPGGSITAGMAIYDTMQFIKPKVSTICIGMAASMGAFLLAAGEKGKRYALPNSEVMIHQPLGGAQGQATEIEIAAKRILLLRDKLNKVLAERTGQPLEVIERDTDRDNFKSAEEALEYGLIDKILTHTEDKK
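Buffer: 100 mM Tris/HCl pH8, 100 mM KCl, 0.05% low protease BSA, 2.5% glycerol, 0.01% Tween-20. ClpP 10 microg/mL final; 20 min RT; delta FRET normalized to ADEP and DMSO controls.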
CtBP-E1A inh: qHTS Assay for Inhibitors of the CtBP/E1A Interaction | CtBP / adenovirus E1A interaction (AlphaScreen) | AlphaScreen GST-E1A/His-CtBP binding, 1536-well; stronger effect = lower value; control for the full effect not named in the record | activity change, % (no concentration beside the values) | hit rate 0.49% among 340,000; in the data active means activity change below about -65%; inconclusive means about -30% to -65%; inactive means above about -30%; further: on the % scale 0 is the no-effect control and ±100 the full control effect; compound concentration not given in the record
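AlphaScreen with 125 nM GST-E1A and 125 nM His-CtBP (5X stocks) in Tris pH 8.0, 300 mM NaCl, BSA, Tween 20, TCEP. Compounds preincubated 2 h at 37 deg C, then glutathione donor/nickel acceptor beads added for 1 h at 37 deg C in dark.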
gsp antag: qHTS for Antagonists of gsp, the Etiologic Mutation Responsible for Fibrous Dysplasia/McCune-Albright Syndrome: qHTS. gsp-mutant cells, cAMP HTRF, 30 min; control for the full effect not named in the record. Potency, µM (doses to about 76.9 µM), inactives show at the highest dose activity change, negative = inhibition, hits mostly inhibitors. hit rate 0.4% among 340,000. AID 624288, 2012; active = falling curve of any shape with a large fitted effect; inconclusive = falling curve, mostly with a smaller effect; inactive = flat or rising curve; cell line not stated here;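 further: intracellular cAMP measured with PDE inhibitor Ro 20-1724 present during compound exposure; potency means the concentration at half of the fitted maximal effect; on the % scale 0 is the no-effect control and ±100 the full control effect; nearly all actives have a fitted effect of over 65% in size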
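HTRF cAMP read-out (cAMP-d2 plus anti-cAMP antibody-K in lysis buffer, 30 min RT). Before lysis, cells are exposed to compounds with […] for 30 min at 37C in DPBS containing Ca/Mg, BSA and Tween 20.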
Menin MLL FP FL: qHTS Assay for Inhibitors Targeting the Menin-MLL Interaction in MLL Related Leukemias: Competition With Fluorescein Labeled MLL-derived Peptide; Fluorescence polarization, fluorescein-MLL peptide displacement from menin; FP activity change, % at 61.4 µM; 290,000 tested, under 10 active; AID 1766, 2009; inconclusive = falling polarisation curve, or a change in total fluorescence; inactive = total fluorescence flat and polarisation flat or rising; no compound was filed as active; the % refers to the polarisation; negative = inhibition;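 further: % of control where 0% means no effect; inhibitors lower the polarisation; unlabelled MLL peptide was the positive control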
Numbers without * were called inactive; ? = inconclusive; nt = no result given; [ ] = dose if it differs, or a comment. Not a hit list; about 5.3% have a hit in one of these screens.

SMILES | Sfp inh | gsp ag | TRPV1 PAM | ClpP mod | CtBP-E1A inh | gsp antag | Menin MLL FP FL
COc1ccccc1CN1CCNC(=O)C1CC(=O)NCCCn1cccn1 (configuration not stated) | -2% | -2%[15.4 µM] | 3 | nt | -6 | -2% | -1.1
Cc1cccc(NS(=O)(=O)c2cc(C(=O)NCc3ccccn3)ccc2C)c1 | 16% | 11%[15.4 µM] | 8 | 2.1% | -3 | 8% | nt
Cc1ccc(S(=O)(=O)NC(C(=O)N2CCOCCOCCOCCOCC2)C(C)C)cc1 (configuration not stated) | 10% | -4% | 0 | nt | 12 | 2% | 1.7
COc1ccccc1-c1nnc(SCC(=O)N2CCOCC2)o1 | 6% | 0% | -7 | -2.1% | 6 | 1% | 8.4
O=C(C1CCCCC1)N1CCC(n2nnc3ccccc32)CC1 | 8% | -6% | -9 | 0.1% | 5 | -1% | -2.3
COc1ccc(/C=N/NC(=O)CNc2ccc(Br)cc2)c(C(=O)O)c1OC | 27% | 10% | 17 | nt | 0 | 10% | 22
NC(=O)c1csc(CCNC(=O)c2ccccc2)n1 | nt | -27% | nt | -0.7% | 5 | nt | nt
Cn1c(CC(=O)NCCO)c(Sc2ccccc2)c2ccccc21 | 0% | 16%[15.4 µM] | -15 | -0.3% | 8 | -7% | -0.3
Cc1cc(NC(=O)CSc2nc3cc(Cl)ccc3o2)no1 | -36% | ? | 11 | nt | 2 | 12% | nt
CCCS(=O)(=O)N1CCN(Cc2ccncc2)CC1 | -18% | -8% | 2 | 2.1% | 10 | 4% | -5.5
CC[C@]12c3[nH]c4ccccc4c3CCN1C(=O)C(CC(=O)NCCCn1ccnc1)C[C@@H]2C(=O)N1CCN(C(=O)C2CC2)CC1 (some centres not stated) | nt | nt | nt | -2.3% | -11 | 8% | nt
CC(C)(C)c1nc2ccccc2[nH]1 | -5% | -5% | -5 | -0.6% | 5 | 4% | 4.1
CCOC(=O)c1sc(N)c(C#N)c1COC(=O)C1=COCCO1 | nt | -11% | 7 | 0.4% | -1 | 13% | nt
CCCCCCCCCCCCOC1OC(CO)C(O)C(O)C1NC(C)=O (configuration not stated) | 2% | -14% | -4 | 1.2% | 4 | 12% | -2.5
Cc1ccccc1C(=O)Nc1ccc(-c2nnc(SC(C)C(=O)O)n2C)cc1 (configuration not stated) | -9% | -13% | 17 | 2.1% | 2 | 11% | 2.6
S=c1[nH]nc(-c2cccnc2)n1/N=C/C(Cl)=C\c1ccccc1 | -13% | -2%[15.4 µM] | 27 | 1.9% | 0 | -8% | nt
COc1cc(OC)c(NC(C)C(=O)NCc2ccccc2)cc1Cl (configuration not stated) | ? | 11%[15.4 µM] | 4 | nt | -22 | -4% | -2.6
COc1cccc(Oc2ccc(C(F)(F)F)cc2NC(=O)CN2C(=O)NC3(CCCC3)C2=O)c1 | nt | -14% | nt | 1.6% | 4 | 12% | nt
Cc1c(Cl)cccc1NC(=O)CN1CCC(C(O)(c2ccccc2)c2ccccc2)CC1 | 6% | ? | 11 | 1.5% | -3 | -2% | 0.6
C/C(=N/NC(=O)c1ccncc1)c1ccc2c(c1)OCO2 | 5% | 25% | 8 | 0.9% | 1 | -12% | -3.5
O=C(c1ccc(CNS(=O)(=O)c2cccc(Cl)c2)cc1)N1CCCCC1 | 1% | -16% | 9 | -0.4% | 0 | -2% | nt
CCOC(=O)N1CCC(N2Cc3cccc(C(=O)Nc4ccc(OCC)cc4)c3C2=O)CC1 | 11% | -59%[inhibitor] | -1 | -0.3% | 2 | -6% | 1.9
COc1ccc(/C=N/N2CCOCC2)cc1OCc1ccccc1 | -20% | 20%[15.4 µM] | -26 | nt | 23 | 8% | -0.2
O=[N+]([O-])c1ccc2[nH]c(=S)[nH]c2c1 | nt | -8% | nt | nt | 1 | 0% | nt
Clc1cccc(CSc2nnc([C@@H]3CCCN3)o2)c1 | 2% | 1% | 6 | -2.4% | -4 | 3% | ?
NS(=O)(=O)c1ccc(CCNC(=O)COC(=O)/C=C/c2ccc(Cl)cc2)cc1 | -8% | ? | 10 | 0.4% | nt | -11% | -0.1
COc1ccc(OC)c(N/C(=N/c2nc(C)cc(C)n2)NC(C)=O)c1 | 17% | 1% | -13 | 0.8% | 2 | -2% | 2.6
Cc1ccc(C2C(C#N)=C(N)OC3=C2C(=O)CCC3)s1 (configuration not stated) | 22% | ? | 6 | nt | 6 | -1% | 0.1
COC(=O)c1cc(CSc2nnc(-c3ccccc3)c(-c3ccccc3)n2)oc1C | -10% | -9% | 4 | 1.4% | -14 | -10% | 3.0
CC(C)(C)NC(=O)CN(C(=O)CCC(=O)Nc1nccs1)c1ccc2c(c1)OCCO2 | 11% | 7%[15.4 µM] | 4 | nt | -10 | 8% | -2.4
COc1ccc(S(=O)(=O)N(C)c2ccc(C(=O)NCc3ccccn3)cc2)cc1OC | 9% | 3% | 2 | 0.2% | -6 | 3% | nt
CC(C)C(OC(=O)c1cccs1)C(=O)NCc1ccccc1 (configuration not stated) | 25% | -75%[inhibitor] | 1 | -2.2% | -3 | 2% | 0.0
O=C(c1ccc(Cl)c(S(=O)(=O)N2CCCCC2)c1)N1CCCCCC1 | 16% | 20%[15.4 µM] | -16 | -2.4% | 3 | -14% | nt
Cc1cccc(C)c1NC(=O)CNC(=O)C(C)N1CCCCC1 (configuration not stated) | nt | 6% | -8 | -3.5% | -7 | -11% | nt
COc1ccc(/C=N/NC(=O)c2ccco2)cc1Cn1nc(C)cc1C | -57% | ? | -10 | -6.8% | -4 | 14% | 3.2
Cc1ccc(S(=O)(=O)NC(=O)NC(C)(C)C)cc1 | 18% | -15% | 11 | -1.7% | 7 | 18% | -1.3
Cc1ccccc1CNc1ccc(C(CC(N)=O)NC(=O)c2ccccc2)cc1[N+](=O)[O-] (configuration not stated) | ? | nt | -1 | 1.4% | -3 | 9% | 0.7
OC(CN1CCCCC1)CN1CCCCC1 | 5% | 29% | 5 | -0.3% | 0 | 17% | 3.9
COc1ccc(CNC(=O)c2ccccc2SC)cc1 | 13% | -6% | -6 | 0.5% | 0 | 5% | 2.5
COC(=O)C[C@H](NC(=O)Cn1cnc2c(SC)nc(N)nc21)C(=O)OC | nt | nt | nt | 4.9% | -16 | 2% | nt
COc1ccccc1NC(=O)CN1C(=O)COc2ccc(S(=O)(=O)N3CCCCCC3)cc21 | 6% | 1% | 20 | 0.4% | 5 | 0% | -1.2
CCCC(=O)Nc1ccc(Cl)c(NC(=S)NC(=O)C(C)C)c1 | 11% | 1% | 5 | -1.6% | 0 | -12% | -3.4
CC(C(=O)Nc1ccc(F)c(F)c1F)N(C)CCOc1ccccc1 (configuration not stated) | 2% | -5% | -6 | -1.9% | 13 | -12% | nt
CC(C)(C)n1ncc2c(=O)n(CC(=O)N3CCCC3)cnc21 | 14% | 10%[15.4 µM] | 9 | -0.9% | 13 | -9% | 1.9
O=C(CSc1ncccn1)N1CCCc2ccccc21 | 20% | 8%[15.4 µM] | -1 | nt | -18 | nt | -2.3
O=[N+]([O-])c1cccc(COc2ccc(CN3CCCCC3)cc2)c1 | nt | nt | nt | -1.6% | -12 | 10% | nt
COc1ccc(C)cc1NC(=O)NC1CC(=O)N(c2ccc3c(c2)OCCO3)C1 (configuration not stated) | nt | -38% | nt | -1.6% | -3 | nt | nt
CCOC(=O)c1cc(-c2ccccc2)sc1NC(=O)C(C)C | -2% | 4% | -6 | -5.6% | 19 | 16% | 3.1
CC(C)c1nnc(SCC(=O)NC(C)(C)C)n1C | -11% | -11% | 1 | nt | 0 | -9% | 1.2
CC(C)Cc1nc(SCC(=O)NCC2CCCO2)c2c(=O)n(C)c(=O)n(C)c2n1 (configuration not stated) | 4% | ? | -14 | -1.3% | 5 | 8% | -4.4
COC(=O)c1ccc(=O)c2nc3/c(=C/O)c(O)cc(=O)c3[nH]c12 | ? | nt | -2 | -3.0% | -94* | 2% | ?
Cc1nc(-c2ccc(F)cc2)c(CC(=O)Nc2cccc(S(=O)(=O)N3CCOCC3)c2)s1 | nt | -47%[inhibitor] | -6 | -14% | 3 | 3% | nt
COc1cccc(NC(=O)CN(C)C(=O)/C=C/c2cn(Cc3ccccc3)nc2-c2cccnc2)c1 | nt | 20%[15.4 µM] | -1 | nt | -1 | -18% | nt

CtBP-E1A inh, hit marks shown above.
smiles	Sfp inh	gsp ag	CtBP-E1A inh	gsp antag	Menin MLL FP FL
COC(=O)c1ccc(=O)c2nc3/c(=C/O)c(O)cc(=O)c3[nH]c12	?	nt	-94*	2%	?

Looked up above:
Result of CCOC(=O)c1cc(-c2ccccc2)sc1NC(=O)C(C)C in gsp antag: 16%
Result of O=[N+]([O-])c1cccc(COc2ccc(CN3CCCCC3)cc2)c1 in CtBP-E1A inh: -12
Result of COC(=O)c1ccc(=O)c2nc3/c(=C/O)c(O)cc(=O)c3[nH]c12 in CtBP-E1A inh: -94*
Result of COc1ccccc1NC(=O)CN1C(=O)COc2ccc(S(=O)(=O)N3CCCCCC3)cc21 in Sfp inh: 6%
Result of O=C(CSc1ncccn1)N1CCCc2ccccc21 in TRPV1 PAM: -1
Result of CCCC(=O)Nc1ccc(Cl)c(NC(=S)NC(=O)C(C)C)c1 in ClpP mod: -1.6%

Compound activity (PubChem BioAssay)
